NPR1 antag: antagonists of human natriuretic peptide receptor Npr1; P16066; HEK293 hNpr1 GloSensor cGMP, ANP-stimulated luminescence; Potency, µM (highest dose often 46.3 µM), for inactives: at the highest dose activity change, negative = inhibition, actives largely listed as inhibitors; 76,000 tested, 1.6% active; AID 1347048; active = well fitted inhibition curve with a large enough effect; inconclusive = small, poorly fitted or top-dose-only effect; inactive = no such curve, though single readings can be large or run the other way;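 further: nearly all actives have a fitted effect of over 60% in size; nearly all hits also lower the signal before the agonist is added; a reference antagonist and vehicle were the controls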
Target sequence (P16066 whole entry, looked up): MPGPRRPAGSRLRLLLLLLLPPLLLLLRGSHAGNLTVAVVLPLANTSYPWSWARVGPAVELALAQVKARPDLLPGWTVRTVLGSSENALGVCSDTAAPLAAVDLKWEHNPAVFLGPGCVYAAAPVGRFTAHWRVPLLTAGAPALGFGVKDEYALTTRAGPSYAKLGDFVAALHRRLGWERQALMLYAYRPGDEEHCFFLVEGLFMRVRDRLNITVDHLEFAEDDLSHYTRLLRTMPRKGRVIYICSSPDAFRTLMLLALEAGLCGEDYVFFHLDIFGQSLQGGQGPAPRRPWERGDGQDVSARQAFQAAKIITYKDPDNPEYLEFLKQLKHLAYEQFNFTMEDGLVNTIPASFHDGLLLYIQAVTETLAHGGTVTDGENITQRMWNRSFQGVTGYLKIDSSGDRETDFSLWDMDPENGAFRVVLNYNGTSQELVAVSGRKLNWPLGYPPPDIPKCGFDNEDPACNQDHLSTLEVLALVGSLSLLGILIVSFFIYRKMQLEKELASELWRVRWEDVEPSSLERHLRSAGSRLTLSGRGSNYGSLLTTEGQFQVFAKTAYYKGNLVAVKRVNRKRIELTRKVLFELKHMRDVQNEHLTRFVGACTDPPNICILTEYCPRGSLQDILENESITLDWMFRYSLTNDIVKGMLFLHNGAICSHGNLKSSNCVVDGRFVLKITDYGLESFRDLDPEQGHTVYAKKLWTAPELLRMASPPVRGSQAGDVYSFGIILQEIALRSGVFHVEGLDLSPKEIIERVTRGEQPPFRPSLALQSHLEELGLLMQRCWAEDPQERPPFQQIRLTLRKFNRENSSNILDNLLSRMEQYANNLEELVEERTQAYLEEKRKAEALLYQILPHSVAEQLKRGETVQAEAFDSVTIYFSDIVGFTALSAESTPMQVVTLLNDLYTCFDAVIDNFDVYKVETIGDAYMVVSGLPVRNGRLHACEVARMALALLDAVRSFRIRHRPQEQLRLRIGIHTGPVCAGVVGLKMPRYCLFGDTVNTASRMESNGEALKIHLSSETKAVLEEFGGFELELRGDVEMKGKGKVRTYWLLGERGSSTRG
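HEK293 cells stably expressing human Npr1 and cGMP GloSensor pGS-40F, loaded 2 h with 2% GloSensor reagent, given compound 30 min at room temperature. Luminescence read before and 20 min after 0.1 nM hNppA.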
An asterisk follows results filed as active; ? = inconclusive; [ ] = remark or other dose. On the % scale 0 is the no-effect control and ±100 the full control effect; potency means the concentration at half of the fitted maximal effect.

SMILES | NPR1 antag
O=C1CCCN1CCCN1C(=O)[C@@H]2C[C@@H](O)CN2C2(CN(Cc3c[nH]c4ccccc34)C2)C1=O | 4%
CC(C)[C@H]1CN(CCC(=O)O)C[C@@H]1NC(=O)c1ccc(CO)o1 | 0%
CNC(=O)c1cc2cc(-c3c(C)noc3C)nc(-c3cccnc3)c2o1 | -11%[70.6 µM]
O=C(NCc1ccccc1)c1ccccc1OC1CN(Cc2ccc(F)cc2)C1 | -17%
Cc1ccc(S(=O)(=O)N[C@H]2CO[C@H]3[C@@H]2OC[C@@H]3n2nnnc2Oc2ccc(-n3ccnc3)cc2)cc1 | -24%
COCCn1ccnc1C1CCN(c2cnc3ccccc3n2)CC1 | -1%
O=c1c2c(n(Cc3cccnc3)n1-c1ccccc1)CN(Cc1ccc(O)cc1)CC2 | 4%[70.6 µM]
O=C(c1cc(C2CC2)[nH]n1)N(Cc1ccc2c(c1)OCO2)C1CC1 | -7%
O=C(O)c1ccc(C2CCCN(C(=O)CCCn3cncn3)C2)cc1 (centres undefined) | 3%
Cc1ccccc1-n1cc(-c2ccnc(NC3CCN(C)CC3)n2)cn1 | -7%
CN(C)c1nc2c(c(=O)[nH]1)CCN(Cc1ccsc1)CC2 | -6%
CSc1ccc(-c2nc3c([nH]2)CC(C)(C)CNC3=O)cc1 | -23%
Cc1cccc(C(=O)N2CCCCCCNC(=O)CC2c2ccccc2)c1 (centres undefined) | 3%
C=C(C)C(C)(C)C(=O)N1CCCC(N2CCN(c3ccccc3OC)CC2)C1 (centres undefined) | 3%
C#CCN(C)CC[C@@H]1CC[C@H](O)[C@@H](C(=O)N(C)Cc2ccccc2)O1 | 4%[70.6 µM]
O=C(Cc1ccc(F)cc1)N1CCC[C@H]1c1nc(-c2ccccc2Cl)no1 | 1%
COC1C(=O)N(C2CCN(C(=O)Cc3c[nH]c4ccccc34)CC2)C12CCOCC2 (centres undefined) | 2%
O=C(COc1ccccc1)Nc1ccc([C@@H](O)[C@H]2COCC(=O)N2Cc2ccc(C(F)(F)F)cc2)cc1 | ?
CCN1C(=O)CCC2(C(=O)NC3CCCC3)CCCC=C12 (centres undefined) | 3%
COc1ccc2c(c1)OCC(C(=O)NCCS(=O)(=O)N1CCCC1)C2 (centres undefined) | -2%
Cc1nc(N2CCN(C)CC2)ncc1C(=O)N1C[C@@H](C)[C@](O)(C2CC2)C1 | -6%
Cc1cnc(C2CC2)n1CCNC(=O)Cn1c(=O)oc2cc(Cl)ccc21 | 4%
O=C(NC1CCCN(c2cc(-c3ccccc3)[nH]n2)C1)c1ccncc1 (centres undefined) | -3%
O=C(NC1CCc2nn(CC3CC3)c(=O)n2CC1)c1cc2ccccc2[nH]1 (centres undefined) | 3%
CCOc1ccccc1NC(=O)Cn1ccn2nc(-c3ccccc3)c(CO)c2c1=O | -16%
CCOC(=O)C1(C/C=C/c2ccccc2)CCCN(C(=O)C2CCOCC2)C1 (centres undefined) | -25%
CN(C)C1CCN(S(=O)(=O)c2ccc3c(c2)CN(C(=O)c2ccccn2)CC3)C1 (centres undefined) | -11%
COc1cccc(CC(=O)NCC2Cn3cccc3C(=O)N2Cc2ccccc2)c1 (centres undefined) | -22%
COc1ccc(C(=O)N2CCc3nnc([C@@H]4C[C@@H](O)CN4C)n3CC2)cn1 | 6%
COCCCNC(=O)N1CCc2nn(C)c(=O)n2CC1 | 2%

Retrieved by compound from above:
SMILES | NPR1 antag
COc1cccc(CC(=O)NCC2Cn3cccc3C(=O)N2Cc2ccccc2)c1 (centres undefined) | -22%
O=C(NCc1ccccc1)c1ccccc1OC1CN(Cc2ccc(F)cc2)C1 | -17%
Cc1cccc(C(=O)N2CCCCCCNC(=O)CC2c2ccccc2)c1 (centres undefined) | 3%

3 structures already listed, ordered by count of non-hydrogen atoms, descending:
SMILES | NPR1 antag
COc1cccc(CC(=O)NCC2Cn3cccc3C(=O)N2Cc2ccccc2)c1 (centres undefined) | -22%
CCOC(=O)C1(C/C=C/c2ccccc2)CCCN(C(=O)C2CCOCC2)C1 (centres undefined) | -25%
CCN1C(=O)CCC2(C(=O)NC3CCCC3)CCCC=C12 (centres undefined) | 3%

5 consecutive records from above, quoted:
SMILES | NPR1 antag
O=C(Cc1ccc(F)cc1)N1CCC[C@H]1c1nc(-c2ccccc2Cl)no1 | 1%
COC1C(=O)N(C2CCN(C(=O)Cc3c[nH]c4ccccc34)CC2)C12CCOCC2 (centres undefined) | 2%
O=C(COc1ccccc1)Nc1ccc([C@@H](O)[C@H]2COCC(=O)N2Cc2ccc(C(F)(F)F)cc2)cc1 | ?
CCN1C(=O)CCC2(C(=O)NC3CCCC3)CCCC=C12 (centres undefined) | 3%
COc1ccc2c(c1)OCC(C(=O)NCCS(=O)(=O)N1CCCC1)C2 (centres undefined) | -2%

Additional entries.
SMILES | NPR1 antag
Cn1c(CCC(=O)N2CC[C@H](CO)[C@H](O)C2)nc2cccnc21 | 5%
CC1(C(=O)O)CCCCC(=O)N1 (centres undefined) | -3%
COc1ccc(Cn2c(C3CCN(C(=O)Cc4cccc(C)c4)CC3)n[nH]c2=O)cc1 | 6%
COc1ccccc1-c1[nH]nc2ncc(C(=O)NCCc3ccccn3)nc12 | -2%[70.6 µM]
CCc1noc(Cn2nc(-c3ccccc3)c3ccccc3c2=O)n1 | 0%
O=C(Cn1ccn2nc3c(c2c1=O)CCCC3)NCc1ccccc1 | 2%
O=C1N[C@@H]2CCN(S(=O)(=O)c3cccs3)[C@@H]2C(=O)N1Cc1ccccc1 | 2%[70.6 µM]
Cc1cnc(C2CC2)n1C1CCN(C(=O)N(C)C)CC1 | 7%
COc1cccc([S+](=O)([O-])N2CCC3(C2)NC(=O)c2ccccc2CO3)c1 (centres undefined) | 0%
COc1ccc(CN2CCC3(CC2)CC(C)=NO3)cc1 | 4%[70.6 µM]
CCN(CC)C(=O)N1CCCC(c2nc(CCOCC3CCOCC3)no2)C1 (centres undefined) | -10%
Cc1ccc(C2=NC3(CCN(C(=O)c4sccc4C)CC3)ON2)cc1 | -19%
O=C(O)CC[C@@H]1CN(C(=O)c2ccc(CO)o2)CC[C@@H]1N1CCOCC1 | 5%
COc1ccc(CN2C=C(C(=O)OCc3cc(=O)n4ccccc4n3)C(C)=NS2(=O)=O)cc1 | ?
COc1ccc([C@H]2C[C@@H](O)[C@@H](O)[C@@H]2NC(=O)c2cccc(OC)c2)cc1 | ?

Next section; the last two above are carried over.
SMILES | NPR1 antag
COc1ccc(CN2C=C(C(=O)OCc3cc(=O)n4ccccc4n3)C(C)=NS2(=O)=O)cc1 | ?
COc1ccc([C@H]2C[C@@H](O)[C@@H](O)[C@@H]2NC(=O)c2cccc(OC)c2)cc1 | ?
CCn1ncc(CN(C)C(=O)CC2C(=O)NCCN2C(C)C)c1C (centres undefined) | 1%
CCOCCOC1CCN(C(=O)c2cc3ccccc3[nH]2)CC1 | 6%
COc1ccc(-c2ccnc3nc(-c4cccs4)nn23)cc1 | -14%
Cn1c(CCNC(=O)C2CCN(c3cn[nH]c(=O)c3)C2)nc2ccccc21 (centres undefined) | -5%
OC1(CNCc2nc(-c3ccncc3)n[nH]2)CNCCOC1 (centres undefined) | 8%
O=C(c1ccsc1)N1CCc2c(nc3cc(-c4ccccc4Cl)[nH]n3c2=O)C1 | -13%
COc1cccc(NC(=O)CN2C(=O)NC3(CCCCC3)C2=O)c1 | -13%
CC1(C(=O)N2CCCC2C(=O)Nc2cccc(-n3cccn3)c2)CC1 (centres undefined) | -21%
CCC1=NS(=O)(=O)c2cc(NC(C)=O)ccc2N1CC(C)C | 1%
Cn1nc(C(=O)Nc2ccc3c(c2)C(=O)N2CCC[C@H]2C(=O)N3)c2ccccc21 | -2%
FC(F)(F)c1ccc(CN2CCNc3cc(Nc4ccccc4)ncc3C2)cc1 | ?
CN(CCc1ccccn1)c1ncccc1CNC(=O)c1cc(C2CC2)no1 | 1%
CC(C)(C)C1CCC2(CC1)NC(=O)N(CC(=O)Nc1cccc(C#N)c1)C2=O (centres undefined) | 2%
COCC1CN(C)CC12CCN(C(=O)c1cnco1)CC2 (centres undefined) | -5%

Screens: PubChem, National Center for Advancing Translational Sciences (NCATS)

A portion of the library; count on the stated rates, not on these rows.
